Assay outcomes deposited in PubChem BioAssay by National Center for Advancing Translational Sciences (NCATS).
VDR inh = inhibitors of human vitamin D receptor; P11473; VDR-SRC2-3 peptide fluorescence polarization, 2 h; Potency, µM, without a hit: max response, negative = inhibition, actives largely listed as inhibitors; actives 0.93% (n = 400,000); AID 504847; active = well fitted inhibition curve with a large enough effect; inconclusive = small, poorly fitted or top-dose-only effect, or another doubt; inactive = no such curve, though single readings can be large or run the other way; also: series mostly up to about 120 µM
Target sequence (P11473 whole entry, looked up): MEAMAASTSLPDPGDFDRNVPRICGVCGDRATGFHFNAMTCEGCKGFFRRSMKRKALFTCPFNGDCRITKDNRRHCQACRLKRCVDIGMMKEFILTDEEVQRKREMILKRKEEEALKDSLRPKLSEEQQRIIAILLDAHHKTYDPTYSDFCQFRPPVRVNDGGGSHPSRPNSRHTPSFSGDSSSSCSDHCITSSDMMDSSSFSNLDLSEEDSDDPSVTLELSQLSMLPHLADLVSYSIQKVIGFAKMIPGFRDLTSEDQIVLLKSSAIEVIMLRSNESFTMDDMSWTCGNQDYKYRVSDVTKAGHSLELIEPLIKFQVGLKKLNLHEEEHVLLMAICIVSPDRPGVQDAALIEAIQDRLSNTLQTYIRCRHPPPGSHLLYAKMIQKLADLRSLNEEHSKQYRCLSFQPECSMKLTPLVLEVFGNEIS
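Inhibition of the VDR/SRC2-3 peptide interaction is quantified by fluorescence polarization. Compounds (23 nl, pintool) incubate with the reagents for 2 hours at ambient room temperature.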
The depositor's hits bear a star; & = joins results of further samples. % is scaled to controls: 0 for no effect and ±100 for the full control effect; potency is read from the fitted curve at half-maximal effect. Only part of the results is shown, so the mix of outcomes need not match the whole.

Sample of the layout (2 entries):
`CC(=O)N(C(C)=O)c1nc2nc(C)cc(C)n2n1` gave VDR inh -19.1%.
For COc1ccc(N2CCN(S(=O)(=O)c3cc4c5c(c3)C(C)C(=O)N5CCC4)CC2)cc1 (stereo not given) the results were VDR inh -7.3%.

All compounds of this part, previewed entries included:
`CC(=O)N(C(C)=O)c1nc2nc(C)cc(C)n2n1` gave VDR inh -19.1%.
For COc1ccc(N2CCN(S(=O)(=O)c3cc4c5c(c3)C(C)C(=O)N5CCC4)CC2)cc1 (stereo not given) the results were VDR inh -7.3%.
Screening CC(=NCCCNC1CCCCC1)C1=C(O)CC(C)(C)CC1=O returned VDR inh -10.1%.
For CS(=O)(=O)N(CC(=O)Nc1cccnc1)c1ccc2c(c1)OCO2 the results were VDR inh 9.4%.
CCOc1cccc(OCCOCCN(C)C)c1 was read as VDR inh -12.0%.
CCCN1CCN(C(=O)CN2C(=O)CC(C)(C)S(=O)(=O)c3ccccc32)CC1 was read as VDR inh 6.4%.
COc1ccc(N2CCN(C3CCCN(C(=O)CN4CCCCC4=O)C3)CC2)cc1 (stereo not given) was read as VDR inh -15.4%.
`CCOC(=O)C1=C(c2ccccc2)Nc2ncnn2C1c1cccc(OC)c1OC` (stereo not given) gave VDR inh 7.9%.
COc1ccc(CCNC(=O)C(=O)NCC(c2cccnc2)N2CCN(c3ccccc3)CC2)cc1 (stereo not given) was read as VDR inh 6.7%.
For COc1cc2nc(CN(C)Cc3ccc(Cl)cc3)[nH]c(=O)c2cc1OC the results were VDR inh -7.7%.
`O/N=C/c1ccccc1OCc1ccccc1Cl` gave VDR inh 5.4%.
Cc1ccc(NC(=O)C(C)N2CCN(C)CC2)cc1S(=O)(=O)N1CCOCC1 (stereo not given) was read as VDR inh 2.6%.
For Cc1cc(C)cc(C(=O)NC(CC(N)=O)c2ccc(N3CCC(Br)CC3)c([N+](=O)[O-])c2)c1 (stereo not given) the results were VDR inh 11.0%.
`CCC1OC(=O)C(C)[C@@H](O[C@H]2C[C@@](C)(OC)C(O)C(C)O2)C(C)[C@@H](O[C@@H]2OC(C)CC(N(C)C)C2O)[C@](C)(O)CC(C)/C(=N\OCOCCOC)[C@H](C)C(O)[C@]1(C)O` (stereo not given in full) gave VDR inh 6.7%.
CC(C)N(CCNC(=O)c1ccc(OCC2CCCO2)cc1)C(C)C (stereo not given) was read as VDR inh -14.8%.
`CCOC(=O)CC(=O)CSc1ncnc2c1nnn2-c1ccc(OC)cc1` gave VDR inh 18.7%.
`OC1(C#CCN2CCCC2)CCCCC1` gave VDR inh 7.2%.
CCc1ccc(N2CC(C(=O)NCc3ccc4c(c3)OCO4)CC2=O)cc1 (stereo not given) was read as VDR inh 18.1%.
Screening Cc1ccc(CN2CC(C(=O)Nc3ccc(S(=O)(=O)N4CCCCC4)cc3)CC2=O)cc1 (stereo not given) returned VDR inh -0.3%.
Cc1ccccc1N1CCN(C2CCCN(C(=O)CCN3CCCCO3)C2)CC1 (stereo not given) was read as VDR inh -0.2%.
For O=C(COC(=O)c1ccc(F)cc1F)Nc1cccc(S(=O)(=O)N2CCOCC2)c1 the results were VDR inh 0.3%.
For O=C(O)c1cccc(N2C(=O)c3ccc(C(=O)c4cccc([N+](=O)[O-])c4)cc3C2=O)c1 the results were VDR inh -6.6%.
COc1ccc(C2SCC(=O)N2CCCN(C)C)cc1 (stereo not given) was read as VDR inh 6.2%.
Screening CC(=O)Nc1cccc2c1C(=O)N(c1ccc(OC(C)=O)cc1)C2=O returned VDR inh 17.3%.
Screening CCN(CC)CCNC(=O)CCn1nc(-c2ccc(Cl)cc2)ccc1=O returned VDR inh 7.6%.
Screening CCOC(=O)C1=C(C)OC(N)=C(C#N)C1c1cc2ccccc2nc1N1CCCCC1 (stereo not given) returned VDR inh inconclusive.
`Cc1ccc(C(C)C)c(OCC(=O)NNC(=O)Cc2ccc(S(=O)(=O)N3CCOCC3)s2)c1` gave VDR inh -9.5%.
Screening CCC(C)NC(=O)C(CCSC)NC(=O)c1ccccc1 (stereo not given) returned VDR inh 1.7%.
CCNC(=O)N(CC)C[C@H]1N[C@@](Cc2ccccc2)(C(=O)OC)[C@H]2C(=O)N(Cc3ccccc3)C(=O)[C@@H]12 was read as VDR inh -5.0%.
For CCCn1nc(C(=O)OCC(=O)Nc2cccc(S(N)(=O)=O)c2)c2ccccc2c1=O the results were VDR inh -1.5%.
CCN(CC)S(=O)(=O)c1ccc(-c2nnc(SCC(=O)Nc3nc(C)cs3)o2)cc1 was read as VDR inh -14.8%.
O=C(c1c[nH]c(C(=O)C(Cl)(Cl)Cl)c1)c1ccccc1F was read as VDR inh 3.7%.
Cc1cc(C(=O)OCC(=O)c2c(N)n(C)c(=O)n(C)c2=O)c(C)o1 was read as VDR inh 1.4%.
`CCOC(=O)c1cn2cccnc2n1` gave VDR inh 3.0%.
Screening COc1cccc(NC(=O)CCNS(=O)(=O)c2cccc3nsnc23)c1 returned VDR inh 10.4%.
Cc1c(C)c2c(OCC(=O)NC3CC3)cc3c(c2oc1=O)CCC(C)(C)O3 was read as VDR inh 1.3%.
Screening COc1cc2c(cc1OC)-c1cc(NC3CCCCCCC3)nc(=O)n1CC2 returned VDR inh 18.6%.
Screening NC(=O)c1ccccc1NC(=O)Nc1cccc(Cl)c1Cl returned VDR inh -11.0%.
Screening CN=c1scc(-c2ccc(Cl)cc2)n1C returned VDR inh -0.9%.
`CCOc1ccccc1NC(=O)Cn1c(=O)n(-c2ccc(F)cc2)c(=O)c2c3c(sc21)CN(C(C)=O)CC3` gave VDR inh -9.7%.
Screening COc1ccccc1NC(=O)COC(=O)Cn1cnc2c1c(=O)n(C)c(=O)n2C returned VDR inh -5.8%.
COc1ccccc1Nc1nnc(SCC(=O)c2c(N)n(C3CC3)c(=O)[nH]c2=O)s1 was read as VDR inh 9.2%.
`COC(=O)[C@@]12CCCN1[C@H](c1ccc(-c3ccccc3)cc1)[C@H]1C(=O)N(C)C(=O)[C@H]12` gave VDR inh 5.5%.
Cc1ccc2c(c1)N(C(=O)CCC(=O)NCc1ccccc1)CC(C)O2 (stereo not given) was read as VDR inh -4.5%.
Screening O=C(NCc1nnc(SCC(=O)N2CCCCCC2)o1)c1ccco1 returned VDR inh -18.4%.
`CC(C)CC(CSc1ccc(Br)cc1)N1CCN(CC(C)C)CCC1=O` (stereo not given) gave VDR inh -20.2%.
For COc1ccc(C2C(C(C)=O)=C(O)C(=O)N2c2ccc(Br)cn2)cc1 (stereo not given) the results were VDR inh 3.0%.
For CCOC(=O)c1c(NC(=O)CSc2nnc(-c3c[nH]c4ccccc34)n2C)sc2c1CCCC2 the results were VDR inh 10.5%.

Ordered by SMILES length (descending): part of the list above.
`COC(=O)[C@@]12CCCN1[C@H](c1ccc(-c3ccccc3)cc1)[C@H]1C(=O)N(C)C(=O)[C@H]12` gave VDR inh 5.5%.
`CCOc1ccccc1NC(=O)Cn1c(=O)n(-c2ccc(F)cc2)c(=O)c2c3c(sc21)CN(C(C)=O)CC3` gave VDR inh -9.7%.
For CCOC(=O)c1c(NC(=O)CSc2nnc(-c3c[nH]c4ccccc34)n2C)sc2c1CCCC2 the results were VDR inh 10.5%.
COc1ccccc1Nc1nnc(SCC(=O)c2c(N)n(C3CC3)c(=O)[nH]c2=O)s1 was read as VDR inh 9.2%.
Cc1c(C)c2c(OCC(=O)NC3CC3)cc3c(c2oc1=O)CCC(C)(C)O3 was read as VDR inh 1.3%.
For COc1ccc(C2C(C(C)=O)=C(O)C(=O)N2c2ccc(Br)cn2)cc1 (stereo not given) the results were VDR inh 3.0%.
Screening COc1cc2c(cc1OC)-c1cc(NC3CCCCCCC3)nc(=O)n1CC2 returned VDR inh 18.6%.
Screening COc1cccc(NC(=O)CCNS(=O)(=O)c2cccc3nsnc23)c1 returned VDR inh 10.4%.
`CC(C)CC(CSc1ccc(Br)cc1)N1CCN(CC(C)C)CCC1=O` (stereo not given) gave VDR inh -20.2%.
Screening O=C(NCc1nnc(SCC(=O)N2CCCCCC2)o1)c1ccco1 returned VDR inh -18.4%.
Screening NC(=O)c1ccccc1NC(=O)Nc1cccc(Cl)c1Cl returned VDR inh -11.0%.
`CCOC(=O)c1cn2cccnc2n1` gave VDR inh 3.0%.

Other structures follow:
Screening CCOC(=O)c1cc2c(C)n(-c3ccc(OCC)cc3)c(C)c2ccc1=O returned VDR inh -7.5%.
For COc1ccc(S(=O)(=O)Nc2ccccc2C(=O)OC2CCCN(C)C2)cc1OC (stereo not given) the results were VDR inh 1.9%.
O=C(COc1coc(CN2CCN(c3ccc(F)cc3)CC2)cc1=O)Nc1ccccc1 was read as VDR inh -4.4%.
O=C(Cn1ncn2c(cc3sccc32)c1=O)NCCc1ccccc1 was read as VDR inh -11.1%.
For CC(c1ccccc1)N1CCN(C(=O)CCl)CC1 (stereo not given) the results were VDR inh inconclusive.
For Cc1ccc(N2CC(C(=O)N3CCN(Cc4ccc5c(c4)OCO5)CC3)CC2=O)cc1 (stereo not given) the results were VDR inh -6.2%.
`Cc1cccc(N2CCN(C(=O)Cn3ncc4c([nH]c5ccccc54)c3=O)CC2C)c1` (stereo not given) gave VDR inh 13.9%.
`O=C(c1ccco1)N1CCN(C(c2ccccc2)c2nnnn2C2CCCC2)CC1` (stereo not given) gave VDR inh 6.0%.
Screening COc1ccc(C(=O)N(Cc2ccc(C(C)C)cc2)C2CCS(=O)(=O)C2)cc1 (stereo not given) returned VDR inh -12.7%.
CC(=O)c1ccc(NC(=O)c2cc(-c3cccs3)on2)cc1 was read as VDR inh -15.1%.
Cc1ccccc1NC(=O)CSc1n[nH]c(-c2ccccn2)n1 was read as VDR inh 16.2%.
`O=C(NCc1ccco1)c1ccc2c(c1)N(Cc1ccc(F)cc1)C(=O)c1ccccc1S2(=O)=O` gave VDR inh -18.2%.
`COc1ccc(N2CCN(C(=O)CSc3nnc(NC(=O)C4CCC4)s3)CC2)cc1` gave VDR inh 1.6%.
Screening CC(C)OCCCN1C(=O)c2[nH]nc(-c3ccccc3O)c2C1c1cccc(Cl)c1 (stereo not given) returned VDR inh -25.9%.
For Cn1c2ccccc2c2nn(-c3ccccc3)c(=O)cc21 the results were VDR inh -9.0%.
Screening Cc1ccc(-c2nc(CS(=O)(=O)CC(=O)NCc3ccc4c(c3)OCO4)c(C)o2)cc1 returned VDR inh -12.4%.
For CC(=O)N1CCN(c2ccc(NS(=O)(=O)c3ccc(C)cc3)cc2)CC1 the results were VDR inh 3.8%.
`CCOc1ccc(C(=O)NC(C)C2COc3ccccc3O2)cc1` (stereo not given) gave VDR inh -4.2%.
N#CCCn1cc(C(=O)N2CCCCC2)c(-c2ccc([N+](=O)[O-])cc2)n1 was read as VDR inh -1.1%.
O=C(OCc1cccc(C(F)(F)F)c1)c1ccc[nH]c1=O was read as VDR inh 1.6%.
N#C/C(=C\c1ccc(-c2nc3ccccc3s2)o1)C(N)=O was read as VDR inh -5.2%.
`C/C(Cn1nnc([N+](=O)[O-])n1)=N\NC(=O)c1cccc(Cl)c1` gave VDR inh 11.3%.
For O=C(CSc1nnc(NC(=O)c2c(F)cccc2F)s1)NC1CC1 the results were VDR inh -15.4%.
For Cc1ccc(CCNS(=O)(=O)c2ccc(C)cc2)cc1 the results were VDR inh 29.7%.
Screening COc1ccc(CCN(C)CCCC(C#N)(c2cc(OC)c(OC)c(OC)c2)C(C)C)cc1OC (stereo not given) returned VDR inh 0.5%&6.7%&1.5%.
For S=C(Nc1ccc2[nH]ccc2c1)NC1CCCCC1 the results were VDR inh 3.2%.
CCOC(=O)C1CCN(C(=O)CSc2n[nH]c(-c3ccccc3Cl)n2)CC1 was read as VDR inh 26.0%.
`Cc1nc2c(-c3ccccc3)c(C)nn2c(C)c1CCC(=O)N1CCOCC1` gave VDR inh -7.4%.
Cc1nc2sc(C#N)c(N)c2c2c1CCCC2 was read as VDR inh 8.4%.
`CCCC(=O)N1CCN(c2ccc(NC(=O)c3cccs3)cc2Cl)CC1` gave VDR inh 5.9%.
COc1ccccc1CN1CC[C@@]2(CCCN(C(=O)c3ccncc3)C2)C1 was read as VDR inh -13.9%.
For O=C1c2oc3ccc(Br)cc3c(=O)c2C(c2cccc(F)c2)N1CCO (stereo not given) the results were VDR inh 7.6%.
For COc1cc2c(cc1OC)CN(Cc1ccc(C)s1)CC2 the results were VDR inh 2.1%.
Screening CCOc1c(Br)cc(C(=O)NCCCn2ccnc2)cc1OC returned VDR inh 5.7%.
For CC(=O)c1cccc(NC(=S)NC(=O)c2cccc(C)c2)c1 the results were VDR inh -18.8%.
Screening Nc1ccc2nn(-c3ccc(F)cc3)nc2c1 returned VDR inh -12.6%.
Cn1c(SCCN2CCOCC2)nc2sc3c(c2c1=O)CCCC3 was read as VDR inh -0.4%.
For CCn1nc(C(=O)Nc2ccccc2C)c(Cl)c1Cl the results were VDR inh -6.4%.
For COc1cccc(CSc2nc3cc(C(=O)NC4CCCC4)ccc3c(=O)n2Cc2ccccc2)c1 the results were VDR inh 14.9%.
Screening CCOCCCNC(=O)c1ccc2c(c1)NC(=O)C(CS(=O)(=O)Cc1ccc(F)cc1Cl)N2 (stereo not given) returned VDR inh -5.6%.
For COc1ccc(OC)c(NS(=O)(=O)c2ccc(-n3cccn3)cc2)c1 the results were VDR inh 27.4%.
For O=C1OC(C(=O)Nc2ccccc2)Cc2ccccc21 (stereo not given) the results were VDR inh 3.2%.
For COc1ccc(CCC(=O)Nc2ncc(C)s2)cc1 the results were VDR inh -18.8%.
`COC(=O)c1c(C)nn(-c2ccc(F)cc2)c1-n1cccc1` gave VDR inh 13.0%.
Screening COc1ccccc1/C=C/C(=O)N1CCN(S(=O)(=O)c2cccs2)CC1 returned VDR inh -7.2%.
O=C(OCCCCN1C(=O)c2ccccc2C1=O)c1n[nH]c2ccccc12 was read as VDR inh 1.6%.
Screening O=C(NCc1ccccn1)C12CC3CC(CC(C3)C1)C2 returned VDR inh 4.7%.
O=C(O)CCC(=O)O was read as VDR inh 5.8%.
Cc1nnc(NC(=O)c2nc(SC(C)C)ncc2Cl)s1 was read as VDR inh 16.8%.
`CC(=O)Nc1ccc(S(=O)(=O)NCCSCc2ccco2)cc1` gave VDR inh -20.8%.
